Calb FLC: affects C. albicans growth with fluconazole; C. albicans CaCi-2 (fluconazole-resistant clinical isolate) + fluconazole, Alamar Blue growth, 48 h; 300,000 compounds, 0.57% hits; growth inhibition, % (concentration not given with the values); AID 1979;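 active means most replicates above 75%; inconclusive means exactly half above 75%; inactive means most below 75%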;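 further: all wells also contain fluconazole at 8 µg/ml as a sub-toxic cotreatment; 0% = median of DMSO wells and 100% = median of geldanamycin control wells; wells of about 8 µL received 7.5 nL stock; the first replicate is given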
MLL AF4-AF9 inh: MLL-AF4/AF9 protein interaction inhibition; P42568; AlphaScreen, biotin-AF4 peptide binding to FLAG-AF9; inhibition, % at 10 µM; 350,000 compounds, 0.47% hits; AID 651704;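 active means every replicate reaching a set inhibition limit, whatever the replicate mean, cut at about 25% in these data; inconclusive means mean inhibition reaches that limit but some replicates miss it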;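 further: 0% = plate neutral control median and 100% = total signal loss; the record names both 10 and 1 µM as test concentration; the first replicate is given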
Target sequence (P42568 whole entry, looked up): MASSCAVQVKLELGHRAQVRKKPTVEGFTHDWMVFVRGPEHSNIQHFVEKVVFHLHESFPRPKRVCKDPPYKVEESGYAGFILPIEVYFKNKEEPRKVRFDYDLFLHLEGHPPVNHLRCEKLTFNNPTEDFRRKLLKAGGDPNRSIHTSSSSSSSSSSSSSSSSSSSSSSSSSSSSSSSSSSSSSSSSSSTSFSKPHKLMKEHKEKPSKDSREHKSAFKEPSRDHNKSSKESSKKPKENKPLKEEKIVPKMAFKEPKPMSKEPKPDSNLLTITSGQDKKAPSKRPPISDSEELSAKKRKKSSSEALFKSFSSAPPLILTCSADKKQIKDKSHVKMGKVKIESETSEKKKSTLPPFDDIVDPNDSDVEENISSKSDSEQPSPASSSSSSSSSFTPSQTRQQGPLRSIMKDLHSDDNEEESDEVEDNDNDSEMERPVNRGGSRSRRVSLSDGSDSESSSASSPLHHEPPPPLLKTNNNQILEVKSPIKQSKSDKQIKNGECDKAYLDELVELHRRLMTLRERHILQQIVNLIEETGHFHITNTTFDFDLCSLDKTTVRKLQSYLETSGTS
Beta apoptosis: beta cell apoptosis inhibition. INS-1E cytokine-induced death, ATP luminescence, 48 h; percent of positive-control rescue, neutral wells zero. protection from apoptosis, % (test concentration not listed). 300,000 compounds, 0.8% hits;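 active means all replicates at 75% or more, or half of them and the mean; inconclusive means half reach 75% but not the mean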;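 further: 0% = cytokine-treated negative control wells and 100% = positive control rescue; higher means more ATP so stronger rescue from cytokine killing; wells of about 40 µL received 100 nL stock; the first replicate is given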
Ecoli rRNA inh: inhibitors of bacterial rRNA selective over humanized ribosomes | 350,000 compounds, 1.6% hits | E. coli WT GFP vs humanized-ribosome RFP mutants, fluorescence, 24 h; stronger effect = lower value; DMSO median 0, no signal -100 | GFP signal change (wild-type ribosome), % (test concentration not listed) | AID 720706;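 active means significant combined selectivity score with lowered wild-type GFP, culture density cut under 30%, mutant RFP and density less affected; inactive means any of these conditions unmet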; further: one replicate is shown; some compounds called inactive have numbers as strong as hits
T cruzi repl: T. cruzi replication inhibition | 300,000 compounds, 1.4% hits | T. cruzi beta-gal in NIH3T3, luminescence, 90 h | inhibition, % (concentration not given with the values);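 active means mean inhibition across valid replicates above about 55%, limit read from the data; inconclusive means mean below that limit but half or more replicates reach it; inactive means mean below it, under half of replicates reach it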;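 further: signal also drops with host cell toxicity which is not excluded here; 0% = plate median of DMSO wells and 100% = zero luminescence signal; higher percent means less beta-gal luminescence so fewer parasites; stock transfer was 50 nL into about 50 µL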
RanGTP-Impb inh: inhibitors of RanGTP-importin-beta interaction, primary screen, biochemical, FRET, CFP-Ran, YFP-importin-beta, homogeneous. cell-free CFP-Ran/YFP-importin-beta FRET ratio. inhibition, % (concentration not given with the values). 300,000 compounds, 1.1% hits. AID 2216;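 active means most replicates above 15%; inconclusive means exactly half above 15%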;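 further: 0% = DMSO wells and 100% = Ran loaded with GDP instead of GTP; wells of about 40 µL received 100 nL stock; the first replicate is given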
ALR H2O2 inh: blocks human ALR sulfhydryl oxidase activity; AID 485317; P55789; inhibition, % (concentration not given with the values); purified ALR, DTT oxidation, H2O2 HRP-luminol luminescence; 290,000 compounds, 3.8% hits;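 active means mean and each replicate at 75% or more; inconclusive means only one of the two met; inactive means neither met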;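 further: stock transfer was 7.5 nL into about 7.5 µL; 0% = neutral wells and 100% = wells with inactivated enzyme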
Target sequence (P55789 whole entry, looked up): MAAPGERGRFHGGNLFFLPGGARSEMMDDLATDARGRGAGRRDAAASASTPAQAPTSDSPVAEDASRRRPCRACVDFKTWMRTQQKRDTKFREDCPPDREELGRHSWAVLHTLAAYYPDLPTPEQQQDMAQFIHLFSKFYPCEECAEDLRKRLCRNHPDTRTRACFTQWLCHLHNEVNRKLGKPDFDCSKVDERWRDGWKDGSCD
FGF22 binding: FGF22 (human) thermal shift binding; 340,000 compounds, 1.5% hits; AID 651658; recombinant FGF22 thermal shift, SYPRO orange fluorescence; percent of sucrose octasulfate shift, DMSO zero; calls only at 9.99 µM;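 active means melting point raised past a set limit in the mean and every replicate; inconclusive means no clear call; three in four hits are not shown here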
Target sequence (Q9HCT0 whole entry, looked up): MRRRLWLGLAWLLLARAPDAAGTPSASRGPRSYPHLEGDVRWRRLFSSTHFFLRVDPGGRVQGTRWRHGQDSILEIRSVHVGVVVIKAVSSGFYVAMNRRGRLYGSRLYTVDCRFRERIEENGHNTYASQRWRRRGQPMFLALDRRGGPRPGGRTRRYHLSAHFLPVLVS
Ecoli rRNA inh OD600: further read-out of Ecoli rRNA inh, marked with its call; OD600 change, %; measured here: OD600 growth;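 optical density of the mix in the first replicate; 0 = DMSO median and -100 = no signal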
Ecoli rRNA inh RFP: further read-out of Ecoli rRNA inh, marked with its call; RFP signal change, %; measured here: RFP humanized mutant strains;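 first replicate; 0 = DMSO median and -100 = no signal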
An asterisk follows results filed as active; i = inactive; ? = inconclusive; nt = not tested or not shown.

SMILES	Calb FLC	MLL AF4-AF9 inh	Beta apoptosis	Ecoli rRNA inh	Ecoli rRNA inh OD600	Ecoli rRNA inh RFP	T cruzi repl	RanGTP-Impb inh	ALR H2O2 inh	FGF22 binding
Brc1ccccc1OCCCN1CCCCCC1	-25	1.4	10	-7	-2	-5.0	24	0.5	-3	i
O=C(CNC(=O)/C(=C\c1ccccc1)NC(=O)c1ccc(Br)cc1)OCc1ccccc1	-6	nt	1	nt	nt	nt	-13	1.4	1	nt
COC(c1ccccc1)c1nnc(CCC(=O)NCCc2ccc(Cl)cc2)o1 (centres undefined)	8	1.4	nt	-7	-6	3.2	2	2.2	nt	i
O=S(=O)(NCCc1csc(-c2cccnc2)n1)c1cccc(F)c1	-2	-1.5	0	0	2	0.5	10	1.6	2	i
CN(C)CCNc1oc(-c2cccc(Cl)c2)nc1C#N	12	nt	-4	nt	nt	nt	18	0.1	nt	nt
Cc1occc1-c1nnc(SCC(=O)Nc2ccccc2)n1Cc1ccccc1	18	-27	-7	-23	-21	-0.7	2	-1.7	-6	i
Cc1ccc2[nH]c(=O)c(C(c3nnnn3C3CCCC3)N(Cc3cccnc3)Cc3ccco3)cc2c1 (centres undefined)	28	nt	-4	nt	nt	nt	-18	0.7	nt	nt
O=C(NC(=O)c1cc(OCC(F)(F)F)ccc1OCC(F)(F)F)Nc1ccccc1	19	0.9	2	6	1	-1.6	37	1.4	-5	i
O=C(NCCc1ccccc1)c1ccc(OCCOc2ccccc2)cc1	1	nt	1	nt	nt	nt	5	5.4	-24	nt
O=C(NNC(=S)Nc1ccccc1)c1ccc2ncccc2c1	26	0.1	-2	-10	4	1.4	-21	2.2	78*	i
O=C(NC(=S)NCC1CCCO1)c1ccc([N+](=O)[O-])cc1 (centres undefined)	2	nt	-8	nt	nt	nt	7	3.6	37	nt
Nc1ncccc1C(=O)OCC(=O)N1CCN(S(=O)(=O)c2ccc(Cl)cc2)CC1	nt	-1.3	-6	-1	2	-1.8	nt	nt	-3	i
CCOC(=O)C(C)(C)N(Cc1ccc(C)cc1)S(=O)(=O)c1ccc(Cl)c([N+](=O)[O-])c1	-1	-0.9	-11	nt	nt	nt	10	3.7	-6	i
Cc1nn(C)c(C)c1/C=C/C(=O)c1ccccc1	-2	nt	-3	nt	nt	nt	-5	2.0	-5	nt
CCN(CC(=O)Nc1cccc(OC)c1)C(=O)c1ccc(C)s1	-27	nt	3	nt	nt	nt	-11	-2.5	-8	nt
O=C(CNC(=O)c1cccc(F)c1)N/N=C/c1cc(Br)ccc1OC(=O)/C=C/c1ccco1	-12	0.8	nt	-27	-34	-0.3	31	1.5	nt	i
CN1CCN(c2ccc(NC(=O)COc3ccc(Cl)cc3Cl)cc2)CC1	-4	nt	-1	nt	nt	nt	?	-7.2	-2	nt
COc1ccc(NC(=O)COc2ccccc2)cc1NC(=O)c1ccco1	20	3.1	3	1	5	1.1	-15	-1.7	0	i
N#CCCn1cc(/C=N/O)c(-c2ccc(F)cc2)n1	-15	nt	nt	nt	nt	nt	0	2.9	2	nt
O=C(Nc1ccccc1NC(=O)c1ccccc1F)c1ccccc1F	-17	2.1	9	-1	-2	-2.8	-9	1.6	26	i
Cc1ccc(N2CCN(C(=S)c3ccc(-c4cccc([N+](=O)[O-])c4)o3)CC2)cc1	17	-2.9	-12	7	11	9.9	9	2.6	nt	i
Cc1cccc2cc3c(N)c(C(=O)N4CCc5ccccc54)sc3nc12	6	2.4	-6	0	-3	0.0	-36	1.5	0	i
COc1ccccc1CC(=O)N(Cc1ccccc1)c1cccc(C)c1	5	2.1	0	-28	-45	-2.1	8	-1.3	-1	i
O=C(CSc1nc2ccc(Nc3nc(N4CCOCC4)nc(N4CCOCC4)n3)cc2s1)Nc1ccccc1Cl	2	0.5	-8	6	16	-0.9	10	3.0	?	i
COc1ccc(S(=O)(=O)NCc2csc(-c3cccnc3)n2)cc1	-2	-3.1	5	5	0	-1.0	7	1.3	-8	i
CCOC(=O)N1CCN(C(=O)c2ccc(Cl)c(S(=O)(=O)N3CCOCC3)c2)CC1	-10	nt	-1	nt	nt	nt	-8	0.8	-6	nt
Nc1nnc(SCC(=O)N2CCN(c3ccccc3)CC2)n1-c1ccccc1	12	nt	0	nt	nt	nt	3	-0.5	98*	nt
CCCC(=O)Nc1nnc(SCC(=O)N2CCN(c3ccccc3)CC2)s1	3	-5.7	-1	12	5	0.7	-4	-1.1	5	i
N#Cc1ccc(C23CC4(C2)[C@H](CN(CC2CCCCC2)[C@@H]4c2ccccc2)C3c2ccccc2)cc1 (some centres undefined)	33	0.2	9	2	-3	0.9	34	8.2	7	i
O=C(Nc1ccccc1F)C1CCN(C(=O)Cc2ccccc2)CC1	-2	nt	-1	nt	nt	nt	-10	-0.7	-17	nt
CCOCCCN(C(=O)c1snc(C(N)=O)c1N)C(C(=O)NC1CCCC1)c1ccc(OC)cc1 (centres undefined)	3	0.9	4	nt	nt	nt	-6	?	nt	i
CCc1ccccc1NC(=O)N1CCc2ccccc2C1	-37	1.8	-13	1	-2	-0.8	-1	-1.6	-12	i
O=C(NCc1cccnc1)C(=O)NCC(c1ccco1)N1CCN(c2ccc(F)cc2)CC1 (centres undefined)	-9	nt	-3	nt	nt	nt	12	6.5	86*	nt
CC(=O)Nc1c(I)c(C(=O)N[C@H]2C(O)O[C@H](CO)[C@@H](O)[C@@H]2O)c(I)c(N(C)C(C)=O)c1I (some centres undefined)	nt	0.0	-10	nt	nt	nt	nt	nt	-5	i
Cc1nn2c(c1-c1ccc(Cl)cc1)N=C(c1ccco1)CC2c1ccccc1 (centres undefined)	0	14	16	-1	10	11	8	-12	-4	i
COc1cc(C2NC(=O)N(C)C3=C2C(=O)CCC3)cc(OC)c1OC (centres undefined)	7	-13	4	9	5	1.6	-6	-5.0	4	i
CC(C)(C)c1ccc(Oc2ncccc2NC(=O)c2cccs2)cc1	3	-3.0	2	nt	nt	nt	18	5.1	-1	i
COc1ccccc1NC(=O)c1cc[n+](C)cc1	-4	-2.3	-2	12	7	-0.9	-14	-0.8	-4	i
CCc1nn(CCCC(=O)N2CCN(c3ccc(OC)cc3)CC2)c(=O)c2cc3occc3n12	3	4.7	7	-10	-25	3.9	9	8.2	72	i
COc1cc(OC)cc(C(=O)N[C@H](C(=O)Nc2nc3ccccc3[nH]2)C(C)C)c1	24	-1.3	nt	7	6	4.6	-1	3.5	nt	i
COc1ccc(-n2nc(C(=O)NCc3cc(OC)ccc3OC)c3c4ccccc4n(C)c3c2=O)cc1	-1	-3.0	3	nt	nt	nt	17	-2.0	-1	i
O=C(CN(C(=O)c1csnn1)c1cccc(C(F)(F)F)c1)NCc1ccc(F)cc1	3	-1.4	0	2	3	-0.5	-1	0.7	-21	i
COc1ccc(-c2nsc3c(N4CCN(C(=O)c5ccco5)CC4)ncnc23)cc1	21	nt	nt	nt	nt	nt	-17	?	-1	nt
O=C(Cn1nnc2ccccc21)N/N=C/c1ccco1	-1	-0.7	2	1	-1	-2.6	-14	-4.1	-33	i
CN(C)c1ccc(/C=C/c2nc3ccccc3c(=O)[nH]2)cc1	4	2.3	33	16	9	-6.9	-11	-4.6	1	i
COc1cnn(-c2ccc([N+](=O)[O-])cc2)c(=O)c1Cl	-11	1.8	-2	nt	nt	nt	8	9.2	4	i
CCN(CC)C(=O)CSc1nnc(CNc2ccc(F)cc2)o1	5	nt	3	nt	nt	nt	-5	-2.4	-6	nt
COc1cc(/C=C(/C#N)c2ccc(C)cc2)ccc1Oc1ccc([N+](=O)[O-])cn1	-9	9.8	41	13	-6	3.3	71*	-2.9	-1	i
C/C(=N\O)C(C)(C)Nc1cccc(Br)c1	-5	1.9	-4	-11	-5	5.0	6	0.0	-4	i
O=S1(=O)NC(=NCc2ccco2)c2ccccc21	18	2.2	-3	9	10	-6.2	3	4.5	-6	nt

(continued)
SMILES	Calb FLC	MLL AF4-AF9 inh	Beta apoptosis	Ecoli rRNA inh	Ecoli rRNA inh OD600	Ecoli rRNA inh RFP	T cruzi repl	RanGTP-Impb inh	ALR H2O2 inh	FGF22 binding
Cc1ccc(OC(C)C(=O)N2CC(=O)Nc3ccccc32)cc1 (centres undefined)	-25	-2.5	0	0	-2	-2.4	-10	3.8	7	i
CCOC(=O)N1CCN(C(=O)c2cccc(N3C(=O)NC4CC3(C)Oc3ccc(Cl)cc34)c2)CC1 (centres undefined)	-3	-0.5	9	-1	9	26	10	3.2	8	i
COc1ccc(S(=O)(=O)Cc2ccc(C(=O)N3CCN(c4ccccc4F)CC3)o2)cc1	-5	5.5	-15	0	7	3.7	8	2.7	13	i
O=C(Nc1ccc(-c2nc3ccccc3c(=O)o2)cc1)c1ccco1	0	nt	-4	nt	nt	nt	4	0.4	4	nt
O=C(NCc1ccccc1)c1ccc(CN2CCC(Cc3ccccc3)CC2)cc1	17	1.2	-8	-5	-14	-2.2	25	-1.0	-6	i
N#CCSc1nnc(CNc2cccc(Cl)c2)o1	-30	nt	-1	nt	nt	nt	-5	1.1	20	nt
O=C(Nc1nc2ccccc2c(=O)s1)c1ccco1	-1	-1.6	-4	5	-1	0.6	-17	2.4	20	i
CCCCC(NC(=O)c1ccc(C#N)cc1)C(=O)NCCC (centres undefined)	nt	-0.1	-2	8	9	-0.4	nt	nt	1	i
COc1cc(-c2ccc3oc(-c4ccsc4)c(C#CC4(O)CCCCC4)c3c2)cc(OC)c1OC	16	9.6	15	-2	2	-6.2	41	1.4	-15	i
Cc1ccc(Cc2nc(-c3cccnc3)no2)cc1	2	-2.8	-1	2	9	-1.8	4	-0.4	4	i
CS(=O)(=O)c1ccc(C(=O)Nc2ccc(S(=O)(=O)N3CCCCC3)cc2)cc1	2	0.9	4	3	0	-1.1	0	-1.9	nt	i
O=C(Cn1ncc2c3ccccc3n(Cc3ccccc3)c2c1=O)NCCCN1CCCC1	22	2.1	0	10	8	1.5	5	4.4	3	i
O=C(O)CCS(=O)(=O)c1nc(-c2cccs2)cc(C(F)(F)F)n1	32	4.7	-9	0	5	-4.5	-32	5.1	97*	i
CCOC(=O)CNC(=S)N(CCCN1CCCC1)Cc1cccs1	-16	-5.5	-3	6	8	-0.5	-7	-1.9	99*	i
CCCCNC(=O)[C@@H]1CSC2c3ccc(OC)c(OC)c3C(=O)N21 (some centres undefined)	-7	-12	-7	5	5	2.4	-10	-4.5	-3	i
CCN(CC)S(=O)(=O)c1ccc(OC)c(NC(=S)Nc2ccc(C)c(C)c2)c1	-30	1.5	-7	2	4	-6.5	10	-1.1	-4	i
CCn1c(SCC(=O)c2ccc(NC(C)=O)c(OC)c2)nnc1-c1ccc(NS(C)(=O)=O)cc1	-2	nt	-7	nt	nt	nt	7	2.5	4	nt
N#C/C(=C\Nc1ccc(Cl)cn1)S(=O)(=O)c1ccccn1	8	-15	-2	16	-11	-0.5	-23	5.8	-5	i

These rows are one share of the data; the hit share may differ from the screen's.
